# Source: PubChem (several laboratories)
# FGF22 binding – shifts melting point of recombinant human FGF22; Q9HCT0; recombinant FGF22 thermal shift, SYPRO orange fluorescence; percent of sucrose octasulfate shift, DMSO zero; calls only at 9.99 µM; 1.5% of 340,000 active;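 active means melting point raised past a set limit in the mean and every replicate; inconclusive means no clear call; three in four hits are not shown here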
# UCH37 DUB inh – inhibitors of human deubiquitinating enzyme UCH37. purified proteasome/UCH37, Ub-AMC cleavage fluorescence. inhibition, % (no concentration beside the values). 0.33% of 330,000 active. AID 588478;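 active means mean of two replicates above 20%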;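 further: 0% = compound-free wells with enzyme and 100% = wells lacking proteasome; stock transfer was 100 nL into about 20 µL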
# Target sequence (Q9Y5K5 whole entry, looked up): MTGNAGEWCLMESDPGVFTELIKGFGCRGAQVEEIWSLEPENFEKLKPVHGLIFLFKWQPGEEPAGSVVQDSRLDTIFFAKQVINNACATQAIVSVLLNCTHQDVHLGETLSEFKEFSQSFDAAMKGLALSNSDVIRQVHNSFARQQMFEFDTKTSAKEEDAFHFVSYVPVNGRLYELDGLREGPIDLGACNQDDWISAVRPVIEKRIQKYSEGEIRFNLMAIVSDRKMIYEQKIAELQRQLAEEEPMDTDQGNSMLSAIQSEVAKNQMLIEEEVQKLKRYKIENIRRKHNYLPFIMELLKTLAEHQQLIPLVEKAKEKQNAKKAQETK
#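 Material: Human UCH37 enzyme supplied as purified proteasome complex | Schedule: 30 min compound-proteasome preincubation then 25 min substrate reaction, room temperature | Detection: AMC fluorescence from Ub-AMC cleavage, excitation 355 nm, emission 460 nm | Benchmarks: Wells without proteasome as full block, compound-free enzyme plus substrate as uninhibited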
# Beta2AR agonist – human beta-2 adrenergic receptor agonism by FAP | P07550 | Am2.2-beta2AR cells, FAP receptor internalization, flow cytometry; reference of the scale not given here | response, % (test concentration not listed) | 0.43% of 340,000 active | AID 504454;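 active means response above a set limit, near 3 SD of response in nonfluorescent compounds, cut at about 42% in these data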;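 further: stock transfer was 100 nL into about 11 µL; a reference agonist was the positive control; negative values mostly stem from fluorescent compounds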
# ALR inh – blocks human ALR sulfhydryl oxidase activity; purified ALR, DTT oxidation, H2O2 HRP-luminol luminescence; inhibition, % (concentration not given with the values); AID 485317; P55789; 3.8% of 290,000 active;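 active means mean and each replicate at 75% or more; inconclusive means only one of the two met; inactive means neither met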;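 further: stock transfer was 7.5 nL into about 7.5 µL; 0% = neutral wells and 100% = wells with inactivated enzyme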
# Target sequence (P55789 whole entry, looked up): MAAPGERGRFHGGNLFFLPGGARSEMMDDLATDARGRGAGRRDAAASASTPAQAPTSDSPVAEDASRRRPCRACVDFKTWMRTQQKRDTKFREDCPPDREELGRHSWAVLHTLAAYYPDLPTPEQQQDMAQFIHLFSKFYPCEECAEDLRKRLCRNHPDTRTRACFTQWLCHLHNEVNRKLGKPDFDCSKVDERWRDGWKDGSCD
# HNF4A DNA FP – change in binding of human HNF4 alpha to DNA; P41235; HNF4a-FITC DNA binding, fluorescence polarization, 1 h; activity change, % at 10 µM; 0.3% of 360,000 active; in the data active means activity change above about 30%, passing the limit was not always enough;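 further: controls were the assay level and a saturating level of protein; the project sought stronger binding though the title names inhibitors; some compounds called inactive have numbers as strong as hits; positive values seem to mean higher polarization but the record does not say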
# Target sequence (P41235 whole entry, looked up): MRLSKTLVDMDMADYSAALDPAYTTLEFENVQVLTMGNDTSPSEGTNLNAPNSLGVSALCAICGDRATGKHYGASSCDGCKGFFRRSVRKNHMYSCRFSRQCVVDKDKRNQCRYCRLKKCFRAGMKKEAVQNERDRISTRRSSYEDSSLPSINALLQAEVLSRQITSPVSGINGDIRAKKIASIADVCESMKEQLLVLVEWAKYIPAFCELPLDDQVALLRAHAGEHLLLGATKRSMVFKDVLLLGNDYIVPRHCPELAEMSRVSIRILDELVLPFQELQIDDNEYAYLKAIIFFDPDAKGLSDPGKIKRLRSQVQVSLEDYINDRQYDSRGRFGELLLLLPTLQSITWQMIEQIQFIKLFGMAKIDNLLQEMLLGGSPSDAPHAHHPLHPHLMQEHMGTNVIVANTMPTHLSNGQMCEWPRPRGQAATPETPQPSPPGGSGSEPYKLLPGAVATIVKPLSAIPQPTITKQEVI
# Ecoli growth – E. coli growth inhibition; OD600 absorbance (no concentration beside the values); Escherichia coli growth, OD600, 23 h; active compounds read low; 0.21% of 330,000 active;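 active means OD600 absorbance below the run mean of sample wells minus 3.6 SD, in any replicate, cut at about 0.56 in these data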;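 further: stock transfer was 300 nL into about 60 µL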
# LANA-H2A inh – blocks KSHV LANA binding to histone H2A/H2B; Q9QR71; cell-free LANA-H2A/H2B peptide, fluorescence polarization; inhibition, % (no concentration beside the values); 0.6% of 320,000 active; in the data active means inhibition mostly above about 10%, no sharp cut-off; inactive means mostly below about 6.7%;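 further: stock transfer was 7.5 nL into about 10 µL; 0% = median of vehicle wells and 100% = median of positive control wells; one replicate is shown; the record names a cut of 25% in any replicate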
# * = called active by the depositor; i = inactive; ? = inconclusive; nt = not tested or not shown.
# Every second line gives: Beta2AR agonist, HNF4A DNA FP, LANA-H2A inh, FGF22 binding, ALR inh, UCH37 DUB inh, Ecoli growth
CCOC(=O)CN(C(=O)CN1CCOCC1)c1ccc(Br)cc1
 : 6, -3.8, 3.4, nt, -4, 1.0, 0.67
Cn1nc(C(=O)OCC(=O)Nc2ccc(F)cc2Cl)c2ccccc2c1=O
 : -5, -0.2, -1.8, i, nt, 3.6, 0.72
CC(C)(C)c1ccc(OCCNC(=S)NC(=O)c2cccnc2)cc1
 : 9, 0.3, 1.2, nt, -1, 0.1, 0.7
CC1CN(C(=O)CCC(=O)N2CCN(c3cccc(C(F)(F)F)c3)CC2)c2ccccc2O1 (centres undefined)
 : 6, 4.3, -1.1, i, -8, 0.9, 0.63
COc1ccc(CN2CCN(C(=O)CC(C)C)CC2)c(OC)c1OC
 : -1, 1.2, 7.3, nt, nt, -3.0, 0.69
C#CCOCCOCCOCCNc1nc(N2CCN(C(=O)[C@H](CCC(=O)O)n3cc(C(N)CO)nn3)CC2)nc(N2CCN(C(=O)[C@H](Cc3cc4ccccc4[nH]3)n3cc(C(N)[C@H](C)CC)nn3)CC2)n1 (some centres undefined)
 : 3, 0.0, 0.9, nt, -11, 0.0, nt
CCOC(=O)C/C(N)=N/NC(=O)c1ccc(Cl)cc1Cl
 : 1, -1.8, 2.1, i, 13, 1.7, 0.64
C=CCc1cccc2cc(C(=O)Nc3ccc(NC(C)=O)cc3)c(=O)oc12
 : -6, 4.7, 8.1, i, -11, 3.5, 0.7
CCOc1ccccc1-n1c(SC(C)C(=O)NCC2CCCO2)nc2ccccc2c1=O (centres undefined)
 : 1, 0.4, 3.1, i, -1, -4.3, 0.66
O=C(COC(=O)Cc1c(Cl)cccc1Cl)Nc1ccc2[nH]c(=O)[nH]c2c1
 : -3, -2.5, -8.0, i, ?, 0.0, 0.67
COc1cccc(CN(C)CC(=O)Nc2c(C)cccc2C(C)C)c1
 : 1, 4.2, -4.1, i, -13, 3.3, 0.69
Cc1occc1C(=O)N/N=C/c1ccccn1
 : 3, -0.9, -1.3, i, -4, nt, nt
CC(=O)c1cc(F)c(N2CCN(C(=O)Cc3ccccc3)CC2)cc1C
 : 6, -0.9, 2.2, nt, -8, 1.5, 0.73
COc1ccccc1NC(=O)CSc1nnc(-c2ccco2)o1
 : -8, -3.2, -0.6, nt, -3, 2.4, 0.72
CN(Cc1ccccc1)C(=O)c1cc(-c2ccc(Br)cc2)on1
 : -4, -1.3, 0.5, i, nt, 1.4, 0.73
CCCCCCCCCCOC(=O)Cn1c(COc2cccc(C)c2)[n+](C)c2ccccc21
 : 0, 3.5, 5.4, i, -42, nt, nt
S=C(NCCc1ccc(Cl)cc1)Nc1ccc(Cl)cc1Cl
 : 12, -2.1, 0.6, nt, -9, 4.2, 0.62
N/C(Cc1cccc2ccccc12)=N\O
 : 16, -22, -1.6, i, -3, nt, nt
O=C(COc1ccccc1Br)c1ccc(O)cc1O
 : 2, 0.3, -2.2, i, 14, 5.8, 0.64
COC(=O)c1sc(NC(=O)COc2ccccc2)nc1C
 : -2, -1.4, -4.5, nt, -2, -3.6, 0.73
O=C(NCCN1CCOCC1)c1cc(S(=O)(=O)Nc2ccccc2F)c(Cl)cc1Cl
 : 3, -1.7, -7.8, i, 1, 6.0, 0.71
O=C(Cc1ccccc1)NCC(=O)N1CCN(Cc2cccc(Cl)c2)CC1
 : -4, -0.8, -1.9, i, 49, 2.6, 0.69
O=C(O)CCNC(=O)c1ccc(Br)o1
 : -10, -1.1, 2.0, nt, 3, -0.1, 0.71
Cc1ccsc1C(=O)Nc1ccc(F)c([N+](=O)[O-])c1
 : -7, 2.4, -4.8, i, -5, 2.1, 0.69
CC(C)(C)c1ccccc1NC(=O)Cn1c(=O)cnc2ccccc21
 : 3, 4.3, 4.5, i, -27, -4.3, 0.73
O=C(Nn1c(C2CCCCC2)nc2ccccc2c1=O)c1ccc(Cl)c([N+](=O)[O-])c1
 : -8, -1.2, 7.6, i, 1, 1.8, 0.68
COC(=O)c1sc(NC(=O)c2c(OC)cccc2OC)c(C#N)c1C
 : -4, -4.6, -5.2, i, -2, -7.0, 0.68
C=C1CCN([C@@H](C)C(=O)NCCCCCC)S(=O)(=O)c2ccccc21
 : 1, 0.3, 2.5, i, 0, 0.4, nt
O=C(CSc1nnc(CNC(=O)c2ccccc2)o1)NCCc1ccccc1
 : -1, -1.0, -2.5, i, -9, -1.4, 0.69
COc1ccc(/C=C2\N=C(c3ccccc3)NNC2=O)cc1
 : -2, -0.9, -12, i, 17, nt, nt
O=C(CSc1n[nH]c(=O)n1C1CC1)c1ccc(F)cc1
 : -7, -2.5, 4.2, i, 62, 3.7, 0.62
COC(=O)c1ccc(NC(=O)C2CCCN2S(=O)(=O)c2ccc(C)cc2)cc1 (centres undefined)
 : 0, 2.4, 3.9, i, nt, 4.1, 0.75
CCC(C)c1ccc(NC(=O)c2cnn3c(C(F)F)cc(C)nc23)cc1 (centres undefined)
 : -2, -1.9, -0.2, i, -2, 7.4, 0.69
O=C(COC(=O)c1cccs1)Nc1nnc(-c2ccccc2)o1
 : 9, 0.9, 4.1, nt, 4, 3.2, 0.65
O=C1c2ccccc2C(=O)N1CCCc1nc2ccccc2c(=O)n1Cc1ccco1
 : -5, 0.3, -4.6, nt, 3, 0.8, 0.76
O=C(CN1C(=O)NC2(CCCC2)C1=O)OCc1cccc(Br)c1
 : 2, -1.7, 4.2, i, 1, -0.2, 0.67
COC(=O)CC1C(=O)NCCN1C(=S)Nc1cccc(C(F)(F)F)c1 (centres undefined)
 : -11, -2.1, -1.2, i, 0, 3.5, 0.64
O=C(Cc1cn2ccsc2n1)Nc1ccccc1Oc1ccccc1
 : 0, -4.1, 17, nt, 25, -3.3, 0.7
COc1ccc(C(=O)OCC(=O)NCC2CCCO2)cc1 (centres undefined)
 : 2, 0.1, -7.2, i, -3, 0.5, 0.71
CCCCn1c(=O)n(CC(O)c2ccccc2)c(=O)c2c1ncn2C1CCCC1 (centres undefined)
 : -1, 1.4, 3.3, nt, nt, 1.1, 0.68
Cc1ccc(N/N=C(\C#N)C(=N)N2CCCCCC2)cc1
 : 1, 2.8, -5.5, i, 2, nt, nt
CCOc1ccc(NC(=O)CCC(=O)N/N=C(\C)c2cccs2)cc1
 : 9, 0.8, 7.9, i, 3, nt, nt
CCCC[C@@H]1CNCCN1CCc1cc(C(F)(F)F)cc(C(F)(F)F)c1
 : 18, -0.5, 0.9, i, -12, 2.2, nt
Cc1cccc(NS(=O)(=O)c2ccc(C(=O)NCCCN3CCOCC3)cc2)c1C
 : 2, 0.3, -2.2, i, -1, -1.7, 0.7
S=c1nn[nH]n1C12CC3CC(CC(C3)C1)C2
 : -7, 2.3, -1.5, nt, 7, 2.8, 0.7
CCNC(=O)N(C)C[C@H]1N[C@@](C)(C(=O)OC)[C@H]2C(=O)N(Cc3ccccc3)C(=O)[C@@H]12
 : -4, -1.2, 2.1, i, nt, 4.1, 0.68
c1ccc(Cn2c(NCc3ccco3)nc3ccccc32)cc1
 : 5, 2.8, -3.8, nt, nt, 1.0, 0.69
COC(=O)c1cc(NC(=S)NC(=O)c2ccccc2)ccc1N1CCOCC1
 : -4, -3.3, -16, i, 19, 3.1, 0.66
COC(=O)CCCCCCCCC(O)C[N+]1(C)CCOCC1 (centres undefined)
 : -5, -0.6, -9.3, i, -4, 6.4, 0.68
COc1cccc(/C=C/C(=O)OCC(=O)NCCNC(=O)COC(=O)/C=C/c2cccc(OC)c2)c1
 : 10, -4.2, 4.0, i, -1, -3.4, 0.67
COc1ccc(CCc2nnc(CCC(=O)NCc3cc(C(C)C)no3)o2)cc1
 : -10, 3.9, -1.4, i, -1, 0.8, 0.69
CC1(C)OC(=O)C(=CNC(=O)c2c(F)cccc2F)C(=O)O1
 : 4, -3.5, 0.9, i, 58, 0.9, 0.65
Cc1nc2c(-c3ccc(Cl)cc3)cnn2c2c1CCC2
 : -16, 1.1, 0.7, i, 0, -24, 0.73
CN(C)C1=C(Cl)C(=O)N(c2ccc(Cl)c(Cl)c2)C1=O
 : 4, -29, 2.9, i, 5, 1.1, 0.67
Cc1ccccc1-n1c(Cn2c(=O)sc3ccccc32)nnc1SCC(=O)Nc1nccs1
 : -2, 11, 2.9, i, -5, 0.6, 0.72
O=C(C[C@@H]1C/C=C\C[C@H](NC(=O)OCC2c3ccccc3-c3ccccc32)C(=O)OC[C@H]2CCCN2C1=O)NCCO
 : -3, -0.3, nt, nt, nt, -0.8, nt
COc1ccc(C(C#N)N2N=C(C)CC2c2ccccc2)cc1 (centres undefined)
 : -9, -1.4, -0.6, i, -1, 1.8, 0.69
CCc1nnc(NC(=O)C2CCCN2S(=O)(=O)c2ccc(C)cc2)s1 (centres undefined)
 : -9, 2.4, -3.7, nt, 0, 1.4, 0.75
C[C@@H](O)C(C(=O)N1CCNCC1)n1cc([C@@H](N)CCCCN)nn1 (some centres undefined)
 : -5, 2.5, 5.8, i, -4, -0.5, nt
COc1cccc(Cn2nnc(C(=O)Nc3ccc(C)cc3)c2N)c1
 : 3, 1.1, 3.1, i, nt, -0.1, 0.75

# Next entries follow:
# Every second line gives: Beta2AR agonist, HNF4A DNA FP, LANA-H2A inh, FGF22 binding, ALR inh, UCH37 DUB inh, Ecoli growth
O=C(COc1ccc(-c2ccccc2)cc1)NNC(=O)NC1CCCCC1
 : 2, -0.6, -9.4, i, -1, 1.7, 0.7
O=C(CNC(=O)c1ccc(Br)cc1)N/N=C/c1cccnc1
 : -15, -0.6, 0.5, i, -8, nt, nt
Cc1ccc(C(=O)NC(C(=O)Nc2ccccc2)c2ccccc2)cc1 (centres undefined)
 : 1, -1.4, -2.8, i, -4, 0.0, 0.64
O=C(Cn1nc(C(=O)O)c2ccccc2c1=O)Nc1cc(Cl)ccc1-n1cncn1
 : 6, -0.4, -1.0, i, -3, 1.9, 0.71
CC(C)N(Cc1cc2ccccc2[nH]c1=O)C(=O)c1ccco1
 : 5, -2.4, -2.4, i, -15, -1.0, 0.72
CCOC(=O)c1sc(NC(=O)CSc2n[nH]c(CC(C)C)n2)nc1C
 : 7, 6.0, 1.5, i, 54, 4.6, 0.68
Cc1cccc(C(=O)Nc2cccc(NC(=O)c3ccccc3)c2)c1
 : 2, 4.9, -1.2, i, -4, 0.5, 0.63
Cc1ccc(-c2nnc3sc(CCc4ccccc4)nn23)cc1
 : -13, -6.0, -1.2, nt, -11, 4.8, 0.76
COc1cccc(CN2CC(C(=O)NCCSc3nnnn3C)CCC2=O)c1 (centres undefined)
 : -2, 0.8, -0.1, i, -14, 1.7, 0.72
c1ccc2c(c1)-c1nc3ccccc3cc1C2N1CCOCC1 (centres undefined)
 : 0, 1.9, nt, i, nt, 5.3, 0.67
CN(Cc1ccccc1)c1nc2c(c(=O)[nH]c(=O)n2C)n1Cc1ccccc1Cl
 : 0, -0.8, -3.1, nt, -13, 3.6, 0.68
Cc1nn(C(C)C(=O)NCc2ccco2)c(=O)c2nn(-c3ccccc3)c(C)c12 (centres undefined)
 : -7, 2.9, 5.1, i, 0, 4.3, 0.7
CCCCNC(=O)NS(=O)(=O)c1ccc(NC(=O)C(NC(N)=O)C(C)CC)cc1 (centres undefined)
 : 4, 0.3, 1.4, i, 2, -1.6, 0.69
COc1ccccc1CC(NC(C)=O)C(=O)N1CCN(C(=O)c2cccs2)CC1 (centres undefined)
 : -3, 2.1, -0.6, nt, 0, 6.3, 0.77
CC(NS(=O)(=O)c1c(N)n(C)c(=O)n(C)c1=O)c1ccccc1 (centres undefined)
 : 1, -1.8, -3.4, i, -2, 1.3, 0.72
O=C(CN1C(=O)NC(Cc2ccccc2)(Cc2ccccc2)C1=O)NCC1CCCCC1
 : -4, 0.9, 6.1, nt, -24, 1.5, 0.61
Cc1c(NC(=O)c2ccc(NC(=O)C3CC3)cc2)cccc1C(=O)O
 : -3, -2.2, 2.6, i, -5, 1.3, 0.64
CC(C)NC(=O)NC(=O)COC(=O)CCCSc1nc2ccccc2s1
 : 4, 1.2, -2.3, nt, -5, -2.7, 0.69
COc1ccc(C(c2nnnn2Cc2ccc(F)cc2)N2CCN(c3ccc(OC)cc3)CC2)cc1 (centres undefined)
 : 3, 2.3, -4.0, nt, 8, 5.0, 0.76

# The list is partial. The share of hits here may be higher or lower than overall.
